# Screens from PubChem BioAssay.
# GALR2 ag: GALR2 (human) receptor agonism; O43603; GALR2-expressing cells, agonist activation read-out; activation, %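 (tested at 5 µM)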; hit rate 0.48% among 140,000; AID 803;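 active = above mean plus 3 SD of all compounds, about 5% in these data, not always enough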;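 note: 0% = vehicle buffer wells and 100% = reference agonist at full effect; tested in CHO reporter cells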
# Target sequence (O43603 whole entry, looked up): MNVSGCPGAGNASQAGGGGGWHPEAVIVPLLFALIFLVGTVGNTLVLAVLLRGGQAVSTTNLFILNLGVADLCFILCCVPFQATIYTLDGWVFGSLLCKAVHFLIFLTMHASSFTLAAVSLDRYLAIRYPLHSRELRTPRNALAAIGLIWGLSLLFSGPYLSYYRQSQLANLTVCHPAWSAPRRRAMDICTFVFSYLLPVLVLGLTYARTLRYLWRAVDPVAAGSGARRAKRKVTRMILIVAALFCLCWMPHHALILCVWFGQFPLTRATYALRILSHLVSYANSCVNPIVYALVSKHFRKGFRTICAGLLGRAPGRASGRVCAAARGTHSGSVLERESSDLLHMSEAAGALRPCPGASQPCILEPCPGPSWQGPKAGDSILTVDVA
# RGS16-Gao: regulators of human RGS16-Galphao interaction; O15492+P09471; bead-based flow cytometry RGS16-Galphao binding, fluorescence; actives lie on both sides; binding response (% of control), % at 10 µM; hit rate 0.38% among 220,000; AID 1441;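 active = below 25% or above 175%, edge rows of some plates excepted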;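 note: Galphao activated by GDP with aluminum fluoride before binding; 100% = wells without compound and 0% = beads without RGS; some results beyond the cut were filed as inactive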
# Target sequence (O15492 whole entry, looked up): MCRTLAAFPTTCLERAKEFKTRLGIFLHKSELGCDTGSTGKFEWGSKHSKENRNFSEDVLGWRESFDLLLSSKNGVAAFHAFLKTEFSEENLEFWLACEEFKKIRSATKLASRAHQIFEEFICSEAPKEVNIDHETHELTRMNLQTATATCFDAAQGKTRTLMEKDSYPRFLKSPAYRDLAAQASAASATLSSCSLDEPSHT
# Target sequence (P09471 whole entry, looked up): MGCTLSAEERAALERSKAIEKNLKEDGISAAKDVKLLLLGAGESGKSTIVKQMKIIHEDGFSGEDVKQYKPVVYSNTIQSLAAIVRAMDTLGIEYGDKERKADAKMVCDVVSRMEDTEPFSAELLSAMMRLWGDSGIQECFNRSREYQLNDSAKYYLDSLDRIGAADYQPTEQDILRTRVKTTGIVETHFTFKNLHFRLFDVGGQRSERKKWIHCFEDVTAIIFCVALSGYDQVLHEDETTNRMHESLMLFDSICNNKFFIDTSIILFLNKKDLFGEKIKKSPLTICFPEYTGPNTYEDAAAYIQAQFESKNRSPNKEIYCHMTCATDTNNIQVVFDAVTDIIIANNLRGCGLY
# HSV augment: increases HSV replication in cells; HSV replication augmentation in cells, fold increase; maximum fold increase; hit rate 0.005% among 220,000; AID 1956;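 active = peak rise of 1.5-fold or more in the series; tested in PC3 cells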;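 note: first round at 10 µM; read as green reporter fluorescence; hits show the peak of a series up to 25 µM; 1 = signal of infected wells without compound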
# INS promoter inh: TRM-6 insulin promoter activity inhibition | TRM-6 cells (human fetal islet line), insulin promoter-eGFP reporter, imaging; reporter expression induced with tamoxifen | inhibition, % at 2 µM | hit rate 0.9% among 130,000 | AID 1273;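 active = inhibition above the mean plus 3 SD, with well images judged a real hit on visual review, cut at about 60% in these data, passing the limit was not always enough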
# PKD1 inh: inhibitors of human PKD1 kinase; Q15139; PKD1 kinase fluorescence polarization assay; inhibition, %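 (about 10 µM by stock and volumes)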; hit rate 0.056% among 200,000;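 active = inhibition of 50% or more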;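 note: controls were vehicle for no effect and a reference inhibitor for full effect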
# INS promoter inh cell count: second read-out of INS promoter inh, no call of its own (marks repeat the call); normalized cell count, %; measured here: cell count, toxicity; reference of the scale not given here;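 cells exposed to compound for 48 h; stained nuclei by imaging scaled within each plate; lower means fewer cells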
# HSV augment primary fold: further read-out of HSV augment, marked with its call; fold increase; compound at 10 µM; measured here: primary screen fold increase 10 uM; tested in PC3 cells;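 GFP signal in the first replicate; 1 = infected wells without compound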
# Numbers without * were called inactive; i = inactive; . = not tested or not shown. Not all compounds are listed; count on the stated rates, not on these rows.
SMILES	GALR2 ag	RGS16-Gao	HSV augment	HSV augment primary fold	INS promoter inh	INS promoter inh cell count	PKD1 inh
NS(=O)(=O)c1ccc(N=Cc2c(O)n(C3CCCCC3)c(=O)n(C3CCCCC3)c2=O)cc1	-0.5	96	i	0.95	.	.	-7
NC(=S)/N=C/c1c(O)[nH]c(=O)[nH]c1=O	.	93	i	0.94	20	103	-1
Cc1cccc(N2C(=O)NC(=O)/C(=C/c3ccc(-c4ccc(C(=O)O)c(Cl)c4)o3)C2=O)c1	.	87	i	0.93	40	94	-5
c1ccc(-c2nc(N3CCOCC3)s[n+]2-c2ccccc2)cc1	-0.7	104	i	1.1	.	.	3
COc1cc(C(c2c(C)[nH]n(-c3ccccc3)c2=O)c2c(C)[nH]n(-c3ccccc3)c2=O)cc(OC)c1OC	-0.4	91	.	.	.	.	1
N#Cc1ccccc1Cn1cc(C(=O)C2CC2)c2ccccc21	0.9	119	i	0.97	-71	55	8
COc1ccc(-n2c(-c3ccc(C)cc3)nc3ccccc3c2=O)cc1	.	102	i	1.1	.	.	.
COc1cccc(NC(=O)CN2CC(c3ccccc3)CC2=O)c1 (centres undefined)	-1.4	107	i	0.86	.	.	-9
CCCCCCC(=O)N/N=C/c1c(O)n(CCCC)c(=S)[nH]c1=O	.	108	i	0.95	.	.	.
Cc1cccc(-n2c(O)c(C)c(=O)[nH]c2=S)c1	.	105	i	0.95	-50	166	-4
O=C1CC(=O)N(c2cccc(Cl)c2)C(=O)N1	-1.6	101	i	1	-9	134	7
CC(=NCC1CCCO1)c1c(O)n(-c2ccccc2)c(=O)[nH]c1=O (centres undefined)	-0.1	133	i	0.94	-41	63	-3
C/C(=N\N=C(N)N)c1ccccc1	.	100	i	0.95	.	.	.
COc1ccc(N2C(=O)NC(=O)C(CCc3ccncc3)(CCc3ccncc3)C2=O)cc1	-2.6	104	i	1.1	-71	64	-1
COc1ccc([N+](=O)[O-])cc1N=Cc1c(O)n(CCc2ccccc2)c(=O)n(C(C)C)c1=O	-1.8	40	i	1.1	21	55	2
C[n+]1c(-c2ccccc2)cc(-c2ccc(Cl)cc2)cc1-c1ccccc1	.	102	i	1	.	.	2
O=C(Nc1ccc2ccccc2c1)c1nn(C23CC4CC(CC(C4)C2)C3)cc1Br	-2.5	97	i	0.7	.	.	-4
CN1C(=O)/C(=C/c2cccn2-c2ccc3ccccc3c2)C(=O)NC1=S	-2.2	88	i	0.91	26	117	-3
Cc1ccc(S(=O)(=O)Cc2ccc(C(=O)N3CCC4(CC3)OCCO4)o2)cc1	-2.5	51	i	1.2	32	98	3
C=C(C)Cn1c(=O)n(CC2CS2)c2ccccc21 (centres undefined)	0.1	104	i	0.86	.	.	-10
CC(=Nc1ccc2c(c1)CCC2)c1c(O)n(C2CCCCC2)c(=O)[nH]c1=O	-0.7	119	i	1.1	.	.	-17
CCN(CC)c1ccc(N=Cc2c(O)n(-c3cc(OC)ccc3OC)c(=O)[nH]c2=O)cc1	-3.6	56	i	1.1	.	.	7
Cc1ccc2c(c1)c(=O)c1c3n2CCN(CC2CO2)C3CC1 (centres undefined)	.	102	i	1	.	.	-2
CC(C)OP(=O)(OC(C)C)C(NCc1ccccc1)c1ccccc1 (centres undefined)	.	102	i	0.94	.	.	8
O=c1[nH]c(=S)[nH]c(O)c1N=Nc1ccc(SC(F)F)cc1	.	106	i	0.9	.	.	.
O=C1CC2OCC=C3CN4CCC56c7cc([N+](=O)[O-])ccc7N1C5C2C3CC46 (centres undefined)	.	110	i	1.1	58	78	5
CCCCNC(=O)Nc1ccc(C(O)(C(=O)OCC)C(F)(F)F)cc1 (centres undefined)	-0.7	105	i	0.78	.	.	-6
CCN1C(=O)NC(=O)/C(=C/c2cc(C)n(-c3sc(C)c(C)c3C#N)c2C)C1=O	0.1	108	i	1.2	10	80	-5
CN(C)c1cc(N)c2c(n1)CCC2 (tested in a mixture with another compound)	0.9	104	i	0.97	-33	49	-5
C=C(COC(=O)CCC(=O)O)CC1CC(O)[C@]2(C)OC3CC4OC5C[C@]6(C)O[C@]7(C)CCC8OC9C[C@]%10(C)OC%11C(C)=CC(=O)OC%11CC%10OC9C[C@@H](C)C8OC7CC6O[C@]5(C)C/C=C\C4OC3CC2O1 (some centres undefined)	.	104	i	0.84	.	.	.
CC(=O)N1CCN(c2ccc(N=Cc3c(O)n(-c4ccc(Cl)cc4)c(=O)[nH]c3=O)cc2)CC1	-0.9	7	i	0.9	.	.	10
Cc1cc(C)cc(NC2=NCCCS2)c1	.	103	i	0.87	.	.	-1
COc1cccc(C2(C#N)CCN(C)CC2)c1	.	72	i	1	-27	168	-2
Cn1c(=O)c2nncnc2n(C)c1=O	-2.5	88	i	1	7	74	-17
Cc1nc2c(C(=O)N3CCC4(CC3)OCCO4)cnn2c(C)c1Cc1cccc(Cl)c1	.	101	i	1	15	53	3
O=C1C2CCN(CC2)[C@@H]1Cc1ccc2ccccc2c1O	-1.8	99	i	0.96	67	144	-3
COc1cccc(N=Nc2c(O)[nH]c(=S)[nH]c2=O)c1	.	103	i	1.1	.	.	.
CCC1CCCCN1CC(=O)c1ccc(OC(F)F)cc1 (centres undefined)	-1.9	99	i	1	.	.	0
CCC(=NCc1ccco1)c1c(O)n(-c2ccc(OC)cc2)c(=O)[nH]c1=O	-2.1	89	i	1.1	54	95	-6
CCCn1cc(CN2CCCC(C(=O)c3cccc(OC)c3)C2)c(C)n1 (centres undefined)	.	115	i	1	30	76	-1
COC(=O)N(c1ccc(OC)cc1)P1(=S)OCCC(C)O1 (centres undefined)	-2.6	56	i	0.96	27	47	-3
O=c1c2ccccc2nc(-c2ccccc2)n1-c1ccccn1	.	104	i	0.92	.	.	-2
O=C(N/N=C/c1c(O)n(-c2cccc3ccccc23)c(=O)[nH]c1=O)c1ccncc1	.	99	i	1.1	.	.	.
C=CCn1c(O)c(C(C)=NCCN2CCN(C(=S)NC)CC2)c(=O)[nH]c1=O	.	103	i	1.2	.	.	.
N#CC1=C(N)Oc2c(c(=O)oc3ccccc23)C1c1ccncc1 (centres undefined)	0.1	117	i	1.1	26	96	6
Oc1c(Br)cc(Br)cc1CN1CCN(Cc2ccccc2)CC1	-3.1	102	i	0.96	7	112	4
CC1CCN(C(=O)c2ccc(N3CC4CC(C3)c3cccc(=O)n3C4)c([N+](=O)[O-])c2)CC1 (centres undefined)	-0.3	98	i	0.98	8	104	-8
COC(=O)CC1(Cc2ccccc2)C(=O)NC(=O)NC1=O	0.3	67	i	0.95	18	71	10
C/C=C1/CN2C3CC1C(CO)(C(=O)OC)C2Cc1c3n(C)c2ccccc12 (centres undefined)	.	91	i	1.1	.	.	.
NC12CN3CN(CN(C3)C1)C2 (tested in a mixture with another compound)	-1.1	96	i	0.87	-21	118	-5
Cn1cccc1/C=C1/C(=O)NC(=S)N(Cc2ccc(F)cc2)C1=O	.	101	i	0.82	.	.	.
COc1ccc(OC(=O)N(C)C)c(CN(C)C)c1	-1.4	95	i	0.87	6	198	1
CC(C)c1oc(=O)cc2c1[C@@H](O)[C@H]1OC(=O)[C@@]3(C)C[C@@H](O)[C@@H](O)[C@@]2(C)C13 (some centres undefined)	0.1	47	i	0.5	-45	68	-17
Cc1cc(OC(=O)c2ccco2)c2c3c(c(=O)oc2c1)CCC3	-2.0	101	i	0.84	.	.	-11
CN1CCN(c2ncc(C=O)s2)CC1	.	99	i	0.95	.	.	-7
CSc1nc(N2CCN(C)CC2)c2ccccc2n1	.	107	i	1	.	.	-6
Cc1nn(Cc2ccccc2)c(C)c1C(=O)O	.	106	i	1	.	.	4
COc1ccc(Nc2ncc(C(=O)N3CCC4(CC3)OCCO4)c3ccccc23)cc1	-0.7	110	i	0.86	12	133	-3
CC(=O)NC1CC2CCC(C1)N2 (centres undefined)	-1.3	100	i	0.97	79*	99*	8
Cc1ccc(-c2nc3ccccc3c(=O)n2-c2ccncc2)cc1	-0.3	116	i	0.94	12	123	-14

# More records.
SMILES	GALR2 ag	RGS16-Gao	HSV augment	HSV augment primary fold	INS promoter inh	INS promoter inh cell count	PKD1 inh
CCC(C)NC(=O)c1c(N)n(CC2CCCO2)c2nc3ccccc3nc12 (centres undefined)	3.3	102	i	0.86	-22	36	-4
Cn1ccc(NC(=O)CCl)n1	.	108	i	0.82	29	109	-3
CN1CCN(c2ccc(Cl)cc2N)CC1	.	144	i	1	.	.	-1
Cn1cnnc1Sc1cc(N2CCNCC2)ccc1[N+](=O)[O-]	.	108	i	0.96	.	.	.
O=C(c1ccc(Cl)cc1)C1CCCN(Cc2ccon2)C1 (centres undefined)	.	106	i	0.84	25	137	-4
COC(=O)C(O)(c1ccc(N(C)C(=O)c2ccc(Cl)c(Cl)c2)cc1)C(F)(F)F (centres undefined)	0.7	105	i	0.96	-48	104	3
C=CCn1c(=O)c(C=Nc2c(OC)cccc2[N+](=O)[O-])c(O)n(CCCC)c1=O	-0.3	101	i	1.1	-93	177	-1
CCCCN1C(=O)NC(=O)C2(Cc3c(nc4ccccn4c3=O)N3CCc4ccccc4C32)C1=O (centres undefined)	2.5	118	i	0.8	.	.	-12
O=C(Nc1ccc(Br)cc1)c1nn(C23CC4CC(CC(C4)C2)C3)cc1Br	-0.8	98	i	0.95	-7	137	-5
COC(=O)c1ccccc1OP1(=O)COc2ccccc2OC1	-2.4	99	i	1	.	.	-7
CCOc1ccc(-c2cc(C)[n+](CCO)c(-c3ccc(OCC)cc3)c2)cc1	.	100	i	0.96	31	54	-3
CCN(CC)CCN/N=C(\C)c1c(O)[nH]c(=O)[nH]c1=O	.	96	i	0.84	.	.	.
CCOC(=O)C1C(=O)NC23CCCC2C1c1ccccc1O3 (centres undefined)	-0.9	93	i	0.87	-40	98	1
CCOC(=O)c1c(-c2ccccc2)oc2ccc(OC(=O)N(C)C)cc12	1.4	116	i	0.74	.	.	8
c1cc2c(cc1[C@H]1OC[C@H]3[C@@H]1CO[C@@H]3c1ccc3c(c1)OCO3)OCO2	.	104	i	0.9	.	.	.
CCOC(=O)c1c(NC(=O)c2c(N)n(CCCOC)c3nc4ccccc4nc23)sc2c1CCCC2	-2.3	103	i	1.2	-28	74	2
Cc1ccsc1-c1nc(CSCC(=O)N2CCC3(CC2)OCCO3)c(C)o1	0.1	100	i	1	19	108	-7
O=C(Nc1ccc(OC(=O)N2CCCC2)cc1)N1CCOCC1	-2.1	92	i	0.87	-3	83	-9
COc1ccccc1CN1CCN(C(=O)COc2cccc(C)c2)CC1	-2.3	104	i	0.87	.	.	5
CC(N)Cc1ccccc1Sc1ccc(O)cc1 (centres undefined)	-1.7	105	.	.	.	.	13
COc1ccc(CCNC(=O)c2c(N)n(CCN3CCOCC3)c3nc4ccccc4nc23)cc1OC	4.2	151	i	0.93	-14	122	-8
COc1cccc(C2(O)CCN(CC(=O)Nc3nc(C)cs3)CC2)c1	.	99	i	1	-426	18	-1
CCOC(=O)/C(CCCN(CC)CC)=N\O	-0.7	99	i	0.9	.	.	-5
COc1cc(Cn2c(N)c(C(=O)NCc3ccco3)c3nc4ccccc4nc32)cc(OC)c1OC	25*	97	i	0.72	38	76	-6
CCOc1ccc(-c2c(C)n(-c3ccc(OCC)cc3)c3[n+]2CCCCC3)cc1	.	98	i	0.8	.	.	.
C=Cn1c(P(=S)(N2CCOCC2)N2CCOCC2)cc2c1CCCC2	-0.3	106	i	0.93	-85	71	3
CNC(=O)OCCc1n(C)cc[n+]1C	0.0	108	i	0.86	-20	114	-4
CCCCc1nc2ccccc2c(=O)n1-c1ccccc1[N+](=O)[O-]	-0.8	102	i	1	7	121	-2
O=C(CN1CC=C(c2ccccc2)CC1)Nc1c(Cl)cccc1Cl	-1.6	106	i	1	-38	68	-12

# 3 entries from above, with each value named.
> C=Cn1c(P(=S)(N2CCOCC2)N2CCOCC2)cc2c1CCCC2
  GALR2 ag = -0.3
  RGS16-Gao = 106
  HSV augment = i
  HSV augment primary fold = 0.93
  INS promoter inh = -85
  INS promoter inh cell count = 71
  PKD1 inh = 3

> COc1cc(Cn2c(N)c(C(=O)NCc3ccco3)c3nc4ccccc4nc32)cc(OC)c1OC
  GALR2 ag = 25*
  RGS16-Gao = 97
  HSV augment = i
  HSV augment primary fold = 0.72
  INS promoter inh = 38
  INS promoter inh cell count = 76
  PKD1 inh = -6

> COC(=O)c1ccccc1OP1(=O)COc2ccccc2OC1
  GALR2 ag = -2.4
  RGS16-Gao = 99
  HSV augment = i
  HSV augment primary fold = 1
  INS promoter inh = .
  INS promoter inh cell count = .
  PKD1 inh = -7
